Assay outcomes (PubChem)
Vif imaging: blocks HIV Vif function. 340,000 compounds, 0.35% hits. HEK293T cells, Vif self-association by quenched fluorescence, imaging, 24 h. inhibition, % at 7.49 µM; in the data active means inhibition above about 50%, passing the limit was not always enough; further: some results filed as inactive read as strong as hits
PDI inh: blocks human protein disulfide isomerase activity | 350,000 compounds, 0.052% hits | PDI insulin aggregation turbidity, A650, 90 min | AID 588391 | inhibition, % at 10 µM | P07237;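 active means mean inhibition across replicates of 30% or more, whatever share of single replicates reach that level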;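 further: absorbance from insulin aggregation driven by PDI reduction with DTT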
aDG glyco act: alpha-DG glycosylation activation; Pro5-aDG cells, alpha-DG glycosylation AlphaScreen (IIH6); 0% Pro5, 100% B10-LARGE cell signal; activation, % at 10 µM; 360,000 compounds, 0.22% hits; AID 624168;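 active means activation of at least 8% versus controls, or a plate z-score of at least 8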;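 further: Pro5 are CHO cells carrying HIG-tagged alpha-DG that lacks glycosylation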
Cardio protect: myocardial damage modulation in H9c2 cells; AID 588492; 360,000 compounds, 0.63% hits; H9c2 cardiomyocytes, H2O2 injury protection, ATPLite, 2 h; protection from H2O2 cell death, % at 20 µM;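 active means compounds giving at least 50% protection of heart cells from peroxide-induced death in the single-dose screen, raw or plate-pattern-corrected value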;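 further: 0% = DMSO wells with peroxide and 100% = DMSO wells without peroxide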
Glyco luc inh: N-linked glycosylation inhibition; 360,000 compounds, 0.23% hits; D54 ERlucT glycosylation luciferase reporter, 24 h; percent of 100 nM tunicamycin response; reporter increase, % at 12.5 µM; AID 588692;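 active means mean luciferase reporter signal, scaled so untreated is 0 and the glycosylation-blocking control 100, at or above a set limit in every replicate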;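 further: luciferase carries N-glycosylation sites so blocking glycosylation raises the light; 0% = median of neutral control wells and 100% = median of 100 nM tunicamycin wells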
Starred values were filed as active, the others as inactive; · = no result given; & = joins results of further samples. An excerpt; count on the stated rates, not on these rows.

molecule,Vif imaging,PDI inh,aDG glyco act,Cardio protect,Glyco luc inh
COc1ccc(C(=O)O)c(O)c1,10,·,-0.1,5,0
CN(C)CCC(c1ccc(Cl)cc1)c1ccccn1 (stereo unspecified),-3&-2,8&-1,-0.2&-0.2,9&2,0&-2
CC(C)NC[C@H](O)COc1cccc2ccccc12,-5,-1,0.0,3,-3
Nc1nc2ccc(OC(F)(F)F)cc2s1,1,-1,-0.3,-18,3
Cc1ccc(NC(=O)c2sccc2SCc2cccc(C(F)(F)F)c2)cc1,-13,10,0.6,-12,-1
Cc1cccn2c(=O)c3cc(C(=O)NCCc4ccccc4)c(=N)n(CCCn4ccnc4)c3nc12,-2,5,0.4,36,11
O=c1[nH]c2ccccc2nc1/C=C/c1ccccc1,-10,1,0.0,2,-1
C=CCOC(Cn1ccnc1)c1ccc(Cl)cc1Cl (stereo unspecified),-6,13,0.0,1,0
O=c1oc2c(CN3CCN(CCO)CC3)c(O)ccc2cc1-c1ccccn1,-9,-1,0.0,0,0
O=C1CCc2ccc(OCCCCN3CCN(c4cccc(Cl)c4Cl)CC3)cc2N1,26,2,0.1,-34,-3
O[C@@H](c1cc(C(F)(F)F)nc2c(C(F)(F)F)cccc12)[C@H]1CCCCN1,-4,18,0.7,-42,-2
C#CC1(O)CCC2C3CCC4=C(CCC(=O)C4)C3CCC21C (stereo unspecified),15,0,0.3,-9,-1
CCOC(=O)c1c(N)sc(N)c1C(=O)OCC,9,11,0.1,-17,3
CC(C)NC[C@@H](O)COc1cccc2ccccc12,-3,7,0.2,2,-2
Nc1ccc(C(=O)O)c(O)c1,0&-3&-2&-3,3&3&2,0.0&-0.1&0.0,4&4&2,4&2&2

Taken from the entries so far (nine entries):
molecule,Vif imaging,PDI inh,aDG glyco act,Cardio protect,Glyco luc inh
COc1ccc(C(=O)O)c(O)c1,10,·,-0.1,5,0
CN(C)CCC(c1ccc(Cl)cc1)c1ccccn1 (stereo unspecified),-3&-2,8&-1,-0.2&-0.2,9&2,0&-2
CC(C)NC[C@H](O)COc1cccc2ccccc12,-5,-1,0.0,3,-3
Nc1nc2ccc(OC(F)(F)F)cc2s1,1,-1,-0.3,-18,3
Cc1ccc(NC(=O)c2sccc2SCc2cccc(C(F)(F)F)c2)cc1,-13,10,0.6,-12,-1
Cc1cccn2c(=O)c3cc(C(=O)NCCc4ccccc4)c(=N)n(CCCn4ccnc4)c3nc12,-2,5,0.4,36,11
O=c1[nH]c2ccccc2nc1/C=C/c1ccccc1,-10,1,0.0,2,-1
C=CCOC(Cn1ccnc1)c1ccc(Cl)cc1Cl (stereo unspecified),-6,13,0.0,1,0
O=c1oc2c(CN3CCN(CCO)CC3)c(O)ccc2cc1-c1ccccn1,-9,-1,0.0,0,0
